High-throughput results from PubChem BioAssay.
A1 inh: inhibitors of the anti-apoptotic protein A1, read as caspase activation; MEF A1-2A-BIM cells, Caspase-Glo 3/7 luminescence, 3 h; percent of clofoctol response, vehicle zero; 330,000 tested, 0.066% active; caspase activation, % (concentration not given with the values);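 active = over half of replicate activation scores above 10%, or exactly half above 10 with the replicate mean above 10; inconclusive = replicate mean below 10 yet half the replicates above 10; inactive = over half of replicates below 10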;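 note: wells of about 30 µL received 50 nL stock; many hits fall short of the cut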
rRNA inh HTS: inhibitors of bacterial rRNA selective over humanized ribosomes; E. coli WT GFP vs humanized-ribosome RFP mutants, fluorescence, 24 h; hits give low values; DMSO median 0, no signal -100; GFP signal change (wild-type ribosome), % (test concentration not listed); 350,000 tested, 1.6% active; AID 720706;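 active = significant combined selectivity score with lowered wild-type GFP, culture density cut under 30%, mutant RFP and density less affected; inactive = any of these conditions unmet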; note: one replicate is shown; some compounds called inactive have numbers as strong as hits
AF4-AF9 inh: inhibitors of human MLL-AF4/AF9 interaction. AlphaScreen, biotin-AF4 peptide binding to FLAG-AF9. inhibition, % at 10 µM. 350,000 tested, 0.47% active;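 active = every replicate reaching a set inhibition limit, whatever the replicate mean, cut at about 25% in these data; inconclusive = mean inhibition reaches that limit but some replicates miss it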;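 note: 0% = plate neutral control median and 100% = total signal loss; the record names both 10 and 1 µM as test concentration; the first replicate is given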
Target sequence (P42568 whole entry, looked up): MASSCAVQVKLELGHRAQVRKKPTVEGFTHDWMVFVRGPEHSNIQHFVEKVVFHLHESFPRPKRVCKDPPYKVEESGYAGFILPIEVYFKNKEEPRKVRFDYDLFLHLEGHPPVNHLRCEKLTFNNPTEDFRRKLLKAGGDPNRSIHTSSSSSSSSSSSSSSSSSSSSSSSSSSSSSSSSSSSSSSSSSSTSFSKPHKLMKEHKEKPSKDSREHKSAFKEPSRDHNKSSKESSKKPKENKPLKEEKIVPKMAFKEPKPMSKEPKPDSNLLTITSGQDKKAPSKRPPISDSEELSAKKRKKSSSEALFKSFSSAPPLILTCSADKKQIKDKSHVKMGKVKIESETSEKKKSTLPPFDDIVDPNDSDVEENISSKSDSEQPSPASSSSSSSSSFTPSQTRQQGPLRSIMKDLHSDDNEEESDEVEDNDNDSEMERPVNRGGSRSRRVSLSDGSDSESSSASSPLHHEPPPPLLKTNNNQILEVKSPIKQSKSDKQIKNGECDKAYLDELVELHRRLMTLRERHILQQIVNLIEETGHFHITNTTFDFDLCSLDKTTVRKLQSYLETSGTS
T cruzi inh: T. cruzi replication inhibition. T. cruzi beta-gal in NIH3T3, luminescence, 90 h. inhibition, % (concentration not given with the values). 300,000 tested, 1.4% active. AID 1885;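 active = mean inhibition across valid replicates above about 55%, limit read from the data; inconclusive = mean below that limit but half or more replicates reach it; inactive = mean below it, under half of replicates reach it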;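 note: signal also drops with host cell toxicity which is not excluded here; 0% = plate median of DMSO wells and 100% = zero luminescence signal; higher percent means less beta-gal luminescence so fewer parasites; stock transfer was 50 nL into about 50 µL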
RanGTP-Imp inh: inhibitors of RanGTP-importin-beta interaction, primary screen, biochemical, FRET, CFP-Ran, YFP-importin-beta, homogeneous; AID 2216; inhibition, % (concentration not given with the values); 300,000 tested, 1.1% active; cell-free CFP-Ran/YFP-importin-beta FRET ratio;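 active = most replicates above 15%; inconclusive = exactly half above 15%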;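 note: 0% = DMSO wells and 100% = Ran loaded with GDP instead of GTP; wells of about 40 µL received 100 nL stock; the first replicate is given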
Beta cell apopt: blocks beta cell apoptosis | INS-1E cytokine-induced death, ATP luminescence, 48 h; percent of positive-control rescue, neutral wells zero | 300,000 tested, 0.8% active | AID 435005 | protection from apoptosis, % (no concentration beside the values);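 active = all replicates at 75% or more, or half of them and the mean; inconclusive = half reach 75% but not the mean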;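 note: 0% = cytokine-treated negative control wells and 100% = positive control rescue; higher means more ATP so stronger rescue from cytokine killing; wells of about 40 µL received 100 nL stock; the first replicate is given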
Vif TR-FRET: HIV-1 Vif–A3G interaction blockers – biochemical, TR-FRET, GST-Vif 1-94, biotin-A3G peptide, dose response retest, primary screen (AID 1117319); TR-FRET GST-Vif / biotin-A3G peptide binding; higher % means a stronger effect; test concentration not given here; strong numbers were not always called active; inhibition, %, or IC50 in µM where a hit was titrated; 260,000 tested, 0.57% active;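 active = above the screen mean plus three standard deviations and confirmed in dose response; inconclusive = results disagree or hit not tested in dose response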;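 note: Vif residues 1-94 fused to GST binding biotinylated APOBEC3G peptide 110-148; 0% = full assay without inhibitor and 100% = GST in place of GST-Vif; retest series ran down from 100 µM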
Calb FLC: affects C. albicans growth with fluconazole. C. albicans CaCi-2 (fluconazole-resistant clinical isolate) + fluconazole, Alamar Blue growth, 48 h. growth inhibition, % (no concentration beside the values). 300,000 tested, 0.57% active;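 active = most replicates above 75%; inconclusive = exactly half above 75%; inactive = most below 75%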;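 note: all wells also contain fluconazole at 8 µg/ml as a sub-toxic cotreatment; 0% = median of DMSO wells and 100% = median of geldanamycin control wells; wells of about 8 µL received 7.5 nL stock; the first replicate is given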
rRNA inh HTS OD600: further read-out of rRNA inh HTS, marked with its call; OD600 change, %; measured here: OD600 growth;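 optical density of the mix in the first replicate; 0 = DMSO median and -100 = no signal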
rRNA inh HTS RFP: also measured in rRNA inh HTS; calls as there; RFP signal change, %; measured here: RFP humanized mutant strains;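 first replicate; 0 = DMSO median and -100 = no signal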
* marks the source's active call; other numbers are inactive results; ? = inconclusive; . = no result given; & = joins results of further samples. This is a subset. The share of hits here may be higher or lower than overall.

SMILES	A1 inh	rRNA inh HTS	rRNA inh HTS OD600	rRNA inh HTS RFP	AF4-AF9 inh	T cruzi inh	RanGTP-Imp inh	Beta cell apopt	Vif TR-FRET	Calb FLC
Cc1ccc(-c2c(C#N)c(N)n3c(nc4ccccc43)c2C#N)cc1	?	.	.	.	.	26	-1.2	80*	6%	-3
Cc1cc(NC(=O)CSc2nc(=O)cc(N)n2-c2ccc(F)cc2)no1	1.1	4	1	-0.8	-4.1	-8	-1.4	0	.	5
CCOC(=O)c1sc(Nc2nc3c(F)cccc3s2)cc1C	0.3	.	.	.	.	0	10	2	-20%	7
CC(=O)c1cnn(-c2nc3c(C)cccc3s2)c1C	-1.2	.	.	.	.	-8	-0.6	3	-30%	6
CC(=O)Nc1ccc(NC(=O)Cn2cnc(S(=O)(=O)N3CCOCC3)c2)cc1	1.1	5	7	-0.8	0.5	-13	2.3	-3	-2%	-4
COc1cc(NS(=O)(=O)c2ccc(NC(=O)/C(=C/c3ccccc3Cl)NC(=O)c3ccccc3)cc2)nc(OC)n1	-0.1	.	.	.	.	-15	2.8	-1	-1%	33
CC(C)Cc1cc(-c2ccco2)c(C#N)c(N)n1	0.2	.	.	.	.	-2	4.3	-1	14%	15
O=C(O)/C=C\C(=O)Nc1ccccc1C(=O)N1CCN(c2ccc(Cl)cc2)CC1	-0.1	.	.	.	.	7	1.2	-6	4%	-41
CC(C)OC(=O)CSc1nc(Cc2ccccc2)nc2ccccc12	0.6	-1	-29	-3.5	-3.2	-18	-3.1	-3	-3%	8
CCN(CCCNc1ncnc2nc[nH]c12)c1cccc(C)c1	0.4	-4	-4	0.1	13	1	-1.1	4	1%	5
O=C1c2ccccc2CN1c1ccccc1	-10	10	18	1.8	0.0	-12	-0.1	3	.	-8
O=C(c1cccs1)N(Cc1cccc(Cl)c1)C1CCS(=O)(=O)C1 (stereo unspecified)	1.0	.	.	.	.	-8	0.8	-6	3%	-8
O=C(O)c1cc(-c2cccs2)nn1-c1cccc(Cl)c1	0.1	-33*	16*	-3.0*	0.4	-9	-0.3	-1	11%	12
Cc1nnc(N/N=C/c2ccccc2O)n1N	0.6	-12	-18	-7.3	-4.3	-9	2.5	4	5%	14
CCc1nn2c(=O)cc(N3CCN(c4cc(C)nc5ccccc45)CC3)nc2s1	.	.	.	.	.	12	2.0	.	-2%	-3
COc1ccc(Cl)cc1NC(=O)[C@@H]1CCCN1C(=O)c1cccs1	0.8	.	.	.	.	-6	?	-14	.	0
CCCCCCCCOC(=O)/C=C/c1c(C)[nH]c(=O)[nH]c1=O	-0.5	-15	-20	-0.4	2.7	30	-4.8	6	-2%	-3
O=C1C2CC=C(Cl)CC2C(=O)N1CC1Cc2ccccc2CO1 (stereo unspecified)	0.3	.	.	.	.	-10	-11	-2	16%	-3
CCc1ccc(OCC(=O)NNC(=O)c2cc3ccccc3o2)cc1	0.3	12	14	0.3	0.6	-10	?	-3	-3%	38
Cc1cccn2c(CNCCCn3ncc4ccccc43)c(C(=O)N3CCCCC3)nc12	-0.4	14	12	-0.7	2.8	5	-0.2	0	2%	-1
CN(C)c1ccc(NS(=O)(=O)c2cc(Cl)ccc2Cl)cc1	0.3	-22	-31	-3.8	-65	12	-5.8	0	.	2
COc1ccc(NC(=O)Nc2nnc(C(C)(C)C)s2)cc1	-0.1	7	5	1.2	-2.3	8	-1.7	-7	0%	-7
CN(CC(=O)Nc1c(Cl)cccc1Cl)C(=O)c1ccccc1SCC(=O)N1CCCC1	0.6	3	6	1.7	21	4	-0.1	-1	.	8
COc1cc(C(=O)NCc2nnc(SCC(=O)N3CCOCC3)o2)cc(OC)c1OC	0.5	7	9	-0.5	-6.0	-1	1.8	0	22%	-5
CCN1CCn2c1nc(N1CCOCC1)nc2=O	-0.7	8	7	1.7	7.3	1	-1.9	-9	-7%	-4
(listing goes on)
SMILES	A1 inh	rRNA inh HTS	rRNA inh HTS OD600	rRNA inh HTS RFP	AF4-AF9 inh	T cruzi inh	RanGTP-Imp inh	Beta cell apopt	Vif TR-FRET	Calb FLC
O=C(CC1NCCNC1=O)Nc1ccc(Oc2ccccc2)cc1 (stereo unspecified)	0.5	.	.	.	.	-11	?	5	6%	10
Cc1cccnc1NC(=O)CCn1c(=O)oc2ccccc21	-0.2	15	1	-1.4	-2.0	-6	0.3	.	0%	6
COCCN(C(=O)COC(=O)/C=C/c1ccccc1Cl)c1c(N)n(Cc2ccccc2)c(=O)[nH]c1=O	0.1	9	5	-0.4	-0.3	?	-0.4	-1	1%	2
C=C(C)c1cccc(C(C)(C)NC(=O)Nc2ccc(Cl)cn2)c1	0.3	.	.	.	.	8	-2.5	-5	13%	7
N#Cc1c(/N=C/c2ccc(-c3ccccc3C(=O)O)o2)sc2c1CCCC2	0.5	4	6	-0.6	1.0	0	1.1	.	16%	17
COc1cccc(S(=O)(=O)NCc2ccc(C(=O)NCC3CCCO3)cc2)c1 (stereo unspecified)	0.2	.	.	.	.	-6	0.7	-6	?	-2
C[C@H](CO)N1C[C@H](C)[C@@H](CN(C)C(=O)Nc2ccc(C(F)(F)F)cc2)Oc2c(NC(=O)NC3CCCCC3)cccc2C1=O	0.5	-7&9	-6&10	1.0&-0.1	4.0&9.3	.	.	3	.	.
COc1ccc(OC)c(NC(=O)CSCc2cnn(-c3ccccc3)c2-n2cccc2)c1	-0.8	.	.	.	.	10	0.0	-2	-2%	-1
CCOC(=O)c1c(S(=O)(=O)N(C)Cc2ccccc2)c(C)n(C)c1C	-0.2	-5	-2	0.8	9.4	9	6.2	-7	.	1
Cc1onc(-c2ccccc2Cl)c1C(=O)N1CCc2ccccc2C1	-0.1	.	.	.	.	14	5.9	3	-2%	8
COc1cccc(CN(C)C(=O)/C=C/c2ccc(S(=O)(=O)N3CCCCCC3)cc2)c1	-0.2	-6	-16	5.7	5.5	16	0.7	-1	.	-16
Cn1nnnc1SCC(=O)Nc1cc(S(=O)(=O)N2CCCC2)ccc1Cl	1.6	5	4	1.0	-0.3	0	-2.6	-3	2%	-4
Cc1ccc(C2OC(=O)c3ccccc32)cc1 (stereo unspecified)	0.8	.	.	.	.	-14	3.6	-1	9%	18
Cc1cccc(C)c1NC(=O)COC(=O)c1cc[n+]([O-])cc1	-0.1	-1	3	-3.3	-2.0	-19	-14	2	-2%	5
Cc1ccc(S(=O)(=O)n2nc(C)c(Br)c2C)c(C)c1C	0.0	.	.	.	.	28	6.3	-3	0%	-5
O=C(CSc1nc2ccccc2c(=O)n1-c1ccc(F)cc1F)Nc1ccc(N2CCOCC2)cc1	0.8	8	2	6.0	7.3	4	3.1	6	.	1
COC(=O)c1cccc(N2C(=O)c3cccnc3C2=O)c1	-0.2	.	.	.	.	-5	-3.6	-8	-1%	-8
CCCCCCSc1ccc(-c2nc3ccc(C)cn3c2NCc2ccccc2)cc1OC	0.9	-16	4	7.8	5.2	56*	7.2	40	.	0
CCOc1cc(CN2CCCC(CO)(Cc3ccc(F)cc3F)C2)ccc1OC (stereo unspecified)	0.3	-9	-8	-3.3	0.2	46	-0.5	.	.	-3
O=C(NC(=S)Nc1ccccc1N1CCCC1)c1cccs1	-0.4	4	12	62	5.3	-3	?	2	.	-4
CC(=O)Nc1ccc(NC(=O)[C@@H](NC(=O)c2ccccc2F)C(C)C)cc1	-0.5	9	5	-1.1	3.8	-5	-5.1	0	2%	-5
CN(C)CCCNc1oc(/C=C/c2ccccc2)nc1C#N	-0.1	9	10	3.0	-2.1	-2	-0.6	-3	-8%	1
CC(OC(=O)C1CC(O)CN1S(=O)(=O)c1ccccc1[N+](=O)[O-])C(=O)N1CCCCC1 (stereo unspecified)	0.8	12	2	-2.3	0.0	2	-3.1	-4	14%	-17
CCOc1cc(/C=N/NC(=O)C(=O)NCC2CCCO2)ccc1OCC(=O)N1CCOCC1 (stereo unspecified)	0.9	8	9	-0.5	-4.7	-14	1.0	2	?	-2
CCOC(=O)C1=C(C)NC(=O)NC1c1ccc(-c2ccc(F)cc2)o1 (stereo unspecified)	0.0	8	-4	2.3	0.3	3	3.9	0	-4%	-1
CCOC(=O)C1CCN(C(=O)c2cc3cc(Cl)ccc3[nH]2)CC1	-0.2	-5	-4	2.4	-2.1	0	0.3	-1	2%	17
O=C(N/N=C/c1cccc(C(F)(F)F)c1)c1cc2c(s1)-c1ccccc1CC2	-0.5	.	.	.	.	2	-1.0	-9	-8%	6

Gathered by group: the compounds so far with fluorine.
SMILES	A1 inh	rRNA inh HTS	rRNA inh HTS OD600	rRNA inh HTS RFP	AF4-AF9 inh	T cruzi inh	RanGTP-Imp inh	Beta cell apopt	Vif TR-FRET	Calb FLC
Cc1cc(NC(=O)CSc2nc(=O)cc(N)n2-c2ccc(F)cc2)no1	1.1	4	1	-0.8	-4.1	-8	-1.4	0	.	5
CCOC(=O)c1sc(Nc2nc3c(F)cccc3s2)cc1C	0.3	.	.	.	.	0	10	2	-20%	7
C[C@H](CO)N1C[C@H](C)[C@@H](CN(C)C(=O)Nc2ccc(C(F)(F)F)cc2)Oc2c(NC(=O)NC3CCCCC3)cccc2C1=O	0.5	-7&9	-6&10	1.0&-0.1	4.0&9.3	.	.	3	.	.
O=C(CSc1nc2ccccc2c(=O)n1-c1ccc(F)cc1F)Nc1ccc(N2CCOCC2)cc1	0.8	8	2	6.0	7.3	4	3.1	6	.	1
CCOc1cc(CN2CCCC(CO)(Cc3ccc(F)cc3F)C2)ccc1OC (stereo unspecified)	0.3	-9	-8	-3.3	0.2	46	-0.5	.	.	-3
CC(=O)Nc1ccc(NC(=O)[C@@H](NC(=O)c2ccccc2F)C(C)C)cc1	-0.5	9	5	-1.1	3.8	-5	-5.1	0	2%	-5
CCOC(=O)C1=C(C)NC(=O)NC1c1ccc(-c2ccc(F)cc2)o1 (stereo unspecified)	0.0	8	-4	2.3	0.3	3	3.9	0	-4%	-1
O=C(N/N=C/c1cccc(C(F)(F)F)c1)c1cc2c(s1)-c1ccccc1CC2	-0.5	.	.	.	.	2	-1.0	-9	-8%	6
